Screening results from PubChem.
Mtb bLac sens – beta-lactam sensitization of Mtb H37Rv; hit rate 0.27% among 330,000; inhibition, % at 25 µM; AID 434955; M. tuberculosis H37Rv growth with meropenem, percent inhibition; hits of this screen are not shown here;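 active = about 74% or more and at least 40 points above the plate without the antibiotic, then above 30% in a dose series; inconclusive = first-round hits that could not be retested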;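 note: growth measured after seven days incubation then overnight dye step; 0% = bacteria only wells and 100% = bacteria with antibiotic; twin plates without the antibiotic show which effects depend on it; some results filed as inactive read as strong as hits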
Arbovirus anti – antivirals against arbovirus infection; inhibition, % at 10 µM; hit rate 0.37% among 200,000; arbovirus infection cell-based antiviral screen;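 active = inhibition from about 30%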;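 note: bluetongue infection of BSR cells; cell survival read as ATP light after 72 h; 0% = infected wells without compound and 100% = uninfected wells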
YopH PTP inh – inhibitors of Yersinia enterocolitica YopH tyrosine phosphatase. fluorescence Ex485/Em525. inhibition, %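 (about 10 µM by stock and volumes)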. hit rate 0.16% among 140,000;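 active = inhibition of 50% or more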;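 note: controls were vehicle for no effect and minimum signal wells for full effect; inactives centre near -20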
Mtb H37Rv – M. tuberculosis H37Rv growth inhibitors, H37Rv strain (AID 1626) | hit rate 0.95% among 220,000 | inhibition, % at 10 µM, or IC50 in µM where a hit was titrated | M. tuberculosis H37Rv growth inhibition; higher % means a stronger effect;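 active = confirmed in a dose series; inconclusive = inhibition above 80% but not taken into the dose series; inactive = below 80% or under 30% at every dose of the series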;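 note: bacteria incubated seven days before Alamar blue readout; 0% = bacteria only wells and 100% = bacteria with antibiotic wells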
RecA intein inh – blocks M. tuberculosis RecA intein splicing. P9WHJ3. inhibition, %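 (about 9 µM by stock and volumes)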. cell-free RecA intein splicing, fluorescence. hit rate 0.75% among 290,000; in the data active = inhibition above about 30%; inconclusive = no clear call, values can overlap the other calls;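 note: 0% = vehicle wells and 100% = reference inhibitor control wells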
Target sequence (P9WHJ3 whole entry, looked up): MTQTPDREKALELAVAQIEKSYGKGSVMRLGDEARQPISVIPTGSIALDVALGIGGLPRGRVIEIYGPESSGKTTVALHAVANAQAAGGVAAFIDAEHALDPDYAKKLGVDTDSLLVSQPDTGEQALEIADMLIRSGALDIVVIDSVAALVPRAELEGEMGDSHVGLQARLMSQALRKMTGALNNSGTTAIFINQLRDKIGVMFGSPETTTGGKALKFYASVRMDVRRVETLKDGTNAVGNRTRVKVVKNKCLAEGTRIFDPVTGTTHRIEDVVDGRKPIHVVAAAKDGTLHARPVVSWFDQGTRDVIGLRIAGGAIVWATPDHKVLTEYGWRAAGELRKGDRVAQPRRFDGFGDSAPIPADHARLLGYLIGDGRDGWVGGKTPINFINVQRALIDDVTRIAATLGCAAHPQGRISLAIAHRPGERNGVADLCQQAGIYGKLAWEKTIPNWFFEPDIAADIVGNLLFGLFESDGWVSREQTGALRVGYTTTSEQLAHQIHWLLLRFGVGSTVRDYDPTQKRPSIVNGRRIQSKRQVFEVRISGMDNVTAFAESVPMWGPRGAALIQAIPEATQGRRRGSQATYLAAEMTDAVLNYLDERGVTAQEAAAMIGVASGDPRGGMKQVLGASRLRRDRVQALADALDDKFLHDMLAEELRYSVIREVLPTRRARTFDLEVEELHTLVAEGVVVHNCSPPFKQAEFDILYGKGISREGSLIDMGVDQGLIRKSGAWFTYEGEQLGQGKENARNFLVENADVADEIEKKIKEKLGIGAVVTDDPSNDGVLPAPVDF
Arbovirus anti repeat – further read-out of Arbovirus anti, marked with its call; inhibition, %; measured here: 10K subset replicate screen; many hits read low in the repeat;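 first of two repeat runs on a subset; 0% = infected and 100% = uninfected wells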
An asterisk follows results filed as active; ? = inconclusive; · = not tested or not shown.

SMILES | Mtb bLac sens | Arbovirus anti | YopH PTP inh | Mtb H37Rv | RecA intein inh | others
CCOC(=O)c1c(-c2ccc(C)o2)csc1NC(=O)COC(=O)c1cccs1 | 2 | -1 | -14 | 19% | 4.3
Cc1ccc(OCCC(=O)OCC(=O)N2CCN(S(=O)(=O)c3ccc(C)cc3C)CC2)cc1 | 1 | · | · | · | 7.0
Cc1ccc(C)c(OCCC(=O)N2CCN(S(=O)(=O)c3cc(C)ccc3C)CC2)c1 | -5 | · | · | · | 5.0
O=C(NCc1cccnc1)C1CCC(c2ccc(Cl)cc2)CC1 (stereo unspecified) | -18 | · | · | · | 2.0
CC(C)n1cc(C(=O)NC2CC(C)(C)Cc3c2cnn3-c2ccccc2)cn1 (stereo unspecified) | -2 | · | · | · | 2.7
Cc1cccc(-c2nc3ccccc3c(=O)n2NC(=O)/C=C/c2ccc([N+](=O)[O-])cc2)c1 | -2 | 8 | -34 | -2% | -1.3
CN1C(=O)C2(NC(=O)c3ccccc3N2C)c2ccccc21 (stereo unspecified) | -3 | · | · | -5% | -4.4
COc1ccc2c3c(cccc13)C(=O)CC2 | 5 | · | · | · | -72
Cc1ccc(NC(=O)OCCNC(=O)OC(C)C)cc1 | 0 | 2 | · | 5% | -0.2
Nn1c(CSc2ccccn2)nc2ccccc2c1=O | -1 | 2 | -12 | -1% | -1.1
O=C(N/N=C/c1cc([N+](=O)[O-])ccc1O)c1c[nH]c2ccccc12 | 14 | · | · | -1% | -2.8
Cc1c(C=O)c2ccccc2n1Cc1ccccc1F | -3 | 2 | · | 3% | 2.7
COc1ccc(CN2C(=O)NC(=O)/C(=C\c3ccc(OC)c(OC)c3OC)C2=O)cc1 | -2 | 1 | · | -3% | -1.6
Cc1cc(NC(=O)C(C)C)ncc1NC(=O)c1ccccn1 | -6 | -8 | · | -8% | 0.5
CC(=O)c1ccc(NC(=O)C2CCCN2S(=O)(=O)c2ccc(F)cc2)cc1 (stereo unspecified) | 0 | -1 | 0 | -6% | 0.1 | Arbovirus anti repeat=1
COc1ccc(N2C(=O)c3ccc(NC(C)=O)cc3C2=O)cc1 | 1 | 5 | -32 | 0% | 3.3
CCCC(=O)Nc1ccc2c(c1)nc(CN1CCN(C(C)=O)CC1)n2C | 3 | 7 | -19 | -11% | 2.7
C/C(=N\NC(=O)c1ccn(C)n1)c1ccc(NC(=O)C2CCCC2)cc1 | -5 | -17 | -23 | 3% | -1.8
O=S1(=O)CCC(NC(=S)N2CCCCC2)C1 (stereo unspecified) | 1 | 12 | -19 | 5% | 1.7
Cc1ccccc1C(=O)NNC(=O)C12CC3CC(CC(C3)C1)C2 | 1 | 4 | · | -4% | ·
FC(F)Sc1ccc(N=C2NN=C(c3ccc4c(c3)OCCO4)CS2)cc1 | 44 | -16 | -76 | 60% | 16
COc1ccc(-n2nc3cc(C)c(NC(=O)c4cccnc4)cc3n2)cc1 | -8 | 6 | -37 | -4% | -2.6
COc1ccc(-n2c(Cc3cc(=O)[nH]c(=O)[nH]3)nnc2SCC(=O)N2CCC(C)CC2)cc1 | 6 | 4 | -15 | 2% | · | Arbovirus anti repeat=0
COc1ccc(CNc2nc(-c3cccnc3)nn2C(=O)C(C)C)cc1 | · | -1 | · | 8% | 0.6
COc1cccc(NC(=S)N(Cc2cccc(Br)c2)CC2CCC(C(=O)O)CC2)c1 (stereo unspecified) | 11 | 4 | · | 4% | 4.5
The list goes on.
SMILES | Mtb bLac sens | Arbovirus anti | YopH PTP inh | Mtb H37Rv | RecA intein inh | others
COc1ccc(CN2CCc3ccccc3C2)c(OC)c1OC | -2 | 2 | -18 | -6% | -1.1
O=C(NN1C(=O)C2C3C=CC(O3)C2C1=O)c1ccccc1 (stereo unspecified) | 3 | 5 | · | 5% | -1.4
CC(=O)N1c2ccc(S(=O)(=O)NCCC(=O)NCc3ccc(N(C)C)cc3)cc2CC1C (stereo unspecified) | 2 | · | · | · | -2.8
CCC(=O)c1ccc(OCc2ccc(C(=O)c3ccccc3)cc2)cc1 | 52 | 5 | · | 18% | 2.4
c1ccc(NC2=Nc3cccc4cccc2c34)cc1 | 17 | 5 | · | 11% | -0.1
C=CCn1c(SCC(=O)N(CCOC)c2c(N)n(CCCC)c(=O)[nH]c2=O)nnc1-c1ccc(Cl)cc1 | -17 | · | · | · | 1.8
NC(=O)CC(NC(=O)c1ccc(Br)cc1)c1ccc(N2CCN(c3ccc(F)cc3)CC2)c([N+](=O)[O-])c1 (stereo unspecified) | 58 | · | · | 13% | -0.5
CSCCC(N=CC1=C(O)CC(C)(C)CC1=O)C(=O)O (stereo unspecified) | 0 | 2 | 3 | 2% | 0.8 | Arbovirus anti repeat=5
COc1cccc2c(Cl)c(CCCl)c(C)nc12 | 14 | -7 | · | -6% | 3.1
CC(=O)c1c(N2CCOCC2)nc(=O)n(-c2ccccc2)c1C | -2 | 0 | -15 | -6% | 1.0
O=C(NCC1CCCO1)C1CCN(C2CCN(C3CCCCCC3)CC2)CC1 (stereo unspecified) | -2 | -5 | · | -2% | -2.5
CC12CCC(=O)N1C(C(=O)Nc1nc(-c3ccccc3Cl)cs1)CS2 (stereo unspecified) | 4 | · | · | · | -1.5
C/C(CCN1CCc2nc(-c3ccccc3)c(-c3ccccc3)cc2C1)=N\O[C@@H](C)c1cc(-c2c(C)cc(C)cc2C)no1 | -13 | -15 | -4 | · | 11
Cc1nc(C2CCC3C4CCC5=CC(=O)CC[C@]5(C)C4CC[C@]23C)cs1 (stereo partly specified) | 21 | · | · | · | 3.3
Cc1cc(C)c2ccc(=S)[nH]c2n1 | -1 | 8 | · | -7% | -1.3
COc1cc(/C=C(/NC(=O)c2ccccc2)C(=O)Nc2cccc(O)c2)c([N+](=O)[O-])cc1OC | 3 | 1 | -31 | · | -5.3
COc1ccc(N(CC(=O)NCc2ccncc2)S(=O)(=O)c2ccccc2[N+](=O)[O-])c(OC)c1 | -7 | 3 | · | -8% | -3.1
COc1ccc(C(CNC(=O)c2oc3c(Cl)cccc3c2C)N2CCCC2)cc1 (stereo unspecified) | 10 | · | · | · | 0.3
O=C(O)CNC(=O)CC1S/C(=N/N=C2\CSC(=O)N2)NC1=O (stereo unspecified) | 2 | 15 | · | 6% | -1.6
COc1ccc(/C=C2/SC(=S)N(CCCC(=O)Nc3ccc(O)cc3)C2=O)cc1 | 82 | · | · | 7% | 8.7
O=C(CSc1nnc(CNC(=O)c2ccc(F)cc2)o1)NCc1ccc2c(c1)OCO2 | -11 | · | · | · | -0.4
COc1ccc(Nc2nc(N)nc(CN3CCc4ccccc4C3)n2)cc1 | 17 | 0 | -42 | 44% | 5.2 | Arbovirus anti repeat=-6
COc1ccc(/C=N/NC(=O)CSCc2ccc([N+](=O)[O-])cc2)cc1OC | -12 | -6 | -23 | 0% | -7.5
CCCC(=O)N(CCN1CCOCC1)c1nc2c(OCC)cccc2s1 | ? | · | · | · | -1.3
Cc1ccccc1C(=O)O/N=C1\CCS(=O)(=O)c2sccc21 | -7 | 0 | -24 | 11% | -1.8
(next part)
SMILES | Mtb bLac sens | Arbovirus anti | YopH PTP inh | Mtb H37Rv | RecA intein inh | others
CC(C)c1cc(C(C)C)c(S(=O)(=O)N2c3ccccc3[C@@]3(Br)C[C@H]4C(=O)N[C@@H](Cc5ccccc5)C(=O)N4[C@@H]23)c(C(C)C)c1 | 3 | · | · | 14% | 5.9
C=CCN1C(=O)/C(=C\c2cc(Br)c(OCc3ccccn3)c(OC)c2)SC1=S | -4 | 7 | · | 4% | 0.7
COc1cccc(Cn2c(=O)c3[nH]cnc3n(-c3ccccc3C)c2=O)c1 | -4 | · | · | 6% | -0.4
CC(C)c1ccc2c(c1)C(N1CCNCC1)Cc1ccc(F)cc1S2 (stereo unspecified) | 100 | · | · | · | 16
Cc1nnc(SCC(=O)Nc2ncc(Cc3ccc(F)cc3)s2)n1N | -1 | 3 | -14 | 2% | 0.0
CN(C)S(=O)(=O)c1ccc2nnn(OCC(=O)NC34CC5CC(CC(C5)C3)C4)c2c1 | -9 | 19 | -3 | 7% | 2.2
Cc1ccc(/C=C2/SC(=O)NC2=S)o1 | · | 4 | · | 3% | ·
CCOC(=O)c1c(C)oc2cc(Br)c(OC)cc12 | -7 | 11 | -18 | -9% | -1.8
C=CCN(CC=C)S(=O)(=O)c1ccc(NC(=S)NC(=O)Cc2ccc(OC)cc2)cc1 | 26 | -21 | -41 | -12% | 1.2
CC(=O)N1CCc2cc(S(=O)(=O)CCC(=O)N(C)c3cc(C)ccc3C)ccc21 | -4 | · | · | · | -0.9
Cc1ccc(/C=C2\SC(=S)N(c3c(C)n(C)n(-c4ccccc4)c3=O)C2=O)cc1 | -7 | -9 | -45 | -17% | -1.5
CN(C(=O)Nc1ccccc1)n1cnc2ccccc2c1=O | -1 | · | · | -5% | 1.2
Cc1ccc(C)c(S(=O)(=O)N2CCN(C(=O)C(C)Sc3ccccc3)CC2)c1 (stereo unspecified) | 11 | · | · | · | 4.5
C=C(C)C1CC=C(C)/C(=N/NC(=O)c2cccs2)C1 (stereo unspecified) | -5 | -6 | -27 | 2% | 0.6
CCN/N=C(\Cc1nc2ccccc2[nH]1)c1ccccc1 | 27 | -2 | · | 7% | -1.8
COC(=O)\C(C(C)=O)=C(/C=C/C=C/C=C/N(C)C)N(C)C | 22 | 4 | -19 | -1% | 2.2
Cc1sc2nc(SCc3nc(-c4ccccc4)no3)n(-c3ccccc3)c(=O)c2c1C | · | 4 | -36 | -3% | 0.6
O=C(NCCN1CCOCC1)C1CCCN(S(=O)(=O)c2ccc(F)cc2)C1 (stereo unspecified) | 2 | · | · | · | 0.6
CS(=O)(=O)n1nc(-c2ccc(Cl)cc2)nc1SCc1ccccc1 | 31 | 2 | -14 | 7% | 4.1
CCOC(=O)c1c(C)[nH]c(C(=O)OCc2ccccc2)c1C | ? | · | · | · | 3.1
S=C(NCCc1ccccn1)Nc1cccc(Cl)c1 | -13 | 8 | -25 | -1% | 0.1
O=C(CCCOc1ccc(Cl)cc1Cl)Nc1ccc(O)cc1C(=O)O | -2 | · | · | -2% | -37
Cn1c(=O)c2[nH]c(SCC(=O)c3ccc(F)cc3)nc2n(C)c1=O | -8 | · | · | -4% | -7.1
COc1ccc(O)c(CN2CCC(n3nccc3NC(=O)c3ccccc3Cl)CC2)c1 | -8 | · | · | · | -2.2
CC(=O)c1c(OCC(=O)O)ccc2c(C)cc(=O)oc12 | -15 | 9 | -23 | -13% | -0.3

Reprinted at random: 7 compounds from above, in no set order.
SMILES | Mtb bLac sens | Arbovirus anti | YopH PTP inh | Mtb H37Rv | RecA intein inh | others
C=CCN(CC=C)S(=O)(=O)c1ccc(NC(=S)NC(=O)Cc2ccc(OC)cc2)cc1 | 26 | -21 | -41 | -12% | 1.2
Cc1sc2nc(SCc3nc(-c4ccccc4)no3)n(-c3ccccc3)c(=O)c2c1C | · | 4 | -36 | -3% | 0.6
CN(C(=O)Nc1ccccc1)n1cnc2ccccc2c1=O | -1 | · | · | -5% | 1.2
CCN/N=C(\Cc1nc2ccccc2[nH]1)c1ccccc1 | 27 | -2 | · | 7% | -1.8
CCOC(=O)c1c(C)[nH]c(C(=O)OCc2ccccc2)c1C | ? | · | · | · | 3.1
Cc1ccc(C)c(S(=O)(=O)N2CCN(C(=O)C(C)Sc3ccccc3)CC2)c1 (stereo unspecified) | 11 | · | · | · | 4.5
Cc1ccc(/C=C2\SC(=S)N(c3c(C)n(C)n(-c4ccccc4)c3=O)C2=O)cc1 | -7 | -9 | -45 | -17% | -1.5

Additional records.
SMILES | Mtb bLac sens | Arbovirus anti | YopH PTP inh | Mtb H37Rv | RecA intein inh | others
COc1ccc2c(OC)c3ccoc3nc2c1OC | -10 | -5 | · | -15% | -2.0 | Arbovirus anti repeat=-4
O=C(OCC(=O)c1cccs1)c1ccc(NC(=O)c2ccco2)cc1 | 79 | 15 | -24 | -2% | · | Arbovirus anti repeat=1
CC1(C)CC2(C)Nc3ccccc3N2C(=S)N1 (stereo unspecified) | -3 | -1 | -21 | 7% | -4.8
O=C(NCc1ccc2c(c1)OCO2)C1CC(=O)N(CCc2ccccc2)C1 (stereo unspecified) | 5 | -11 | -13 | 2% | -1.1 | Arbovirus anti repeat=-2
C=CCn1c(CNc2ccccc2)nnc1SCC(=O)N/N=C/c1ccc(O)cc1O | -11 | -24 | -52 | -2% | 1.1
COc1ccc(OC)c(NC(=O)CS(=O)(=O)c2ccccc2)c1 | · | 5 | 6 | 5% | 1.1
CN(C)c1ccc(N2C(=NC(=O)CCc3ccccc3)SC3CS(=O)(=O)CC32)cc1 (stereo unspecified) | 5 | · | · | · | -1.1
O=C(CCN1C(=O)c2ccccc2C1=O)Nc1cccnc1 | 3 | 4 | -28 | -5% | -1.3
CCN(CC)c1ccc(N2C(=NC(=O)C3CCCO3)SC3CS(=O)(=O)CC32)cc1 (stereo unspecified) | -2 | · | · | · | 1.0

Only part of the results is shown; rates above refer to the full screens.
